# rRNA inh HTS – reduced GFP signal of wild-type E. coli, primary screen, bacterial rRNA inhibitor project, GFP/RFP fluorescence, OD600, single point. hit rate 1.6% among 350,000. E. coli WT GFP vs humanized-ribosome RFP mutants, 24 h; stronger effect = lower value; DMSO median 0, no signal -100. GFP signal change (wild-type ribosome), % (no concentration beside the values). AID 720706, 2013;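 active means significant combined selectivity score with lowered wild-type GFP, culture density cut under 30%, mutant RFP and density less affected; inactive means any of these conditions unmet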; further: one replicate is shown; some compounds called inactive have numbers as strong as hits
# UCH37 DUB inh – inhibitors of human UCH37 deubiquitinase, primary screen, biochemical, Ub-AMC cleavage, fluorescence. inhibition, % (concentration not given with the values). hit rate 0.33% among 330,000. purified proteasome/UCH37;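 active means mean of two replicates above 20%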;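 further: 0% = compound-free wells with enzyme and 100% = wells lacking proteasome; stock transfer was 100 nL into about 20 µL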
# Target sequence (Q9Y5K5 whole entry, looked up): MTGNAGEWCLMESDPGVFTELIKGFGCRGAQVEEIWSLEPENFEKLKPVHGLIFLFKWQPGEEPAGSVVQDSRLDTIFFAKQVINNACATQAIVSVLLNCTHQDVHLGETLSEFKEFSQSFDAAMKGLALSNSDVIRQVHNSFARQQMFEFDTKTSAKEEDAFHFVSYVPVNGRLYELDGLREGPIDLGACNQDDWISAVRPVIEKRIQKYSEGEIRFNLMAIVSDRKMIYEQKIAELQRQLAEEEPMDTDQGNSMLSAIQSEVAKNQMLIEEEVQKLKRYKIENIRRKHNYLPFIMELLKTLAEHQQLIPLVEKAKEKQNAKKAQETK
#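 System: Proteasome-associated human UCH37 deubiquitinase; Input: 0.15 nM proteasome in added enzyme buffer; Also added: Ub-AMC substrate from 1 µM stock; Incubation: 30 min compound-proteasome preincubation then 25 min substrate reaction, room temperature; Detection: fluorescence, ex 355 nm, em 460 nm; Read-out: % inhibition of Ub-AMC cleavage fluorescence; Benchmarks: no-proteasome and no-compound wells.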
# MLL AF4-AF9 inh – inhibitors of AF4 peptide binding to AF9, primary screen, biochemical, AlphaScreen, biotin-AF4 peptide, FLAG-AF9, single point | Protein AF-9 (Homo sapiens), P42568 | inhibition, % at 10 µM | hit rate 0.47% among 350,000;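 active means every replicate reaching a set inhibition limit, whatever the replicate mean, cut at about 25% in these data; inconclusive means mean inhibition reaches that limit but some replicates miss it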;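 further: 0% = plate neutral control median and 100% = total signal loss; the record names both 10 and 1 µM as test concentration; the first replicate is given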
# Target sequence (P42568 whole entry, looked up): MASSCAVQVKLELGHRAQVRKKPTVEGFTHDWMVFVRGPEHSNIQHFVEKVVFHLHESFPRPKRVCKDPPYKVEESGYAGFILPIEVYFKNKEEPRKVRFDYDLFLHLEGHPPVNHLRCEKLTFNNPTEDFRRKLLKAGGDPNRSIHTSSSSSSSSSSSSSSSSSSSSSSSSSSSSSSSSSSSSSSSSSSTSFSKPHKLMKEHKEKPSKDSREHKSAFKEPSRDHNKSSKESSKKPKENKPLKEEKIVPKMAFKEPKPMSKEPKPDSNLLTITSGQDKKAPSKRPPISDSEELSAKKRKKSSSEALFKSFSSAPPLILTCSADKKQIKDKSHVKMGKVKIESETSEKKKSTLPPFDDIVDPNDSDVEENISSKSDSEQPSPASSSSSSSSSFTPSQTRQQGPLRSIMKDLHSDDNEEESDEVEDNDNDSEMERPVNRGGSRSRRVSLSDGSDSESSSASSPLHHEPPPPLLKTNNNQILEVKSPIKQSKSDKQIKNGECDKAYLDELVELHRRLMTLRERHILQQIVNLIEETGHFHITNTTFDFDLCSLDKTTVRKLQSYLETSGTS
# T cruzi inh – inhibitors of intracellular T. cruzi growth, primary screen, luminescence, NIH3T3 host cells | T. cruzi beta-gal in NIH3T3, 90 h | inhibition, % (no concentration beside the values) | hit rate 1.4% among 300,000;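 active means mean inhibition across valid replicates above about 55%, limit read from the data; inconclusive means mean below that limit but half or more replicates reach it; inactive means mean below it, under half of replicates reach it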;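 further: signal also drops with host cell toxicity which is not excluded here; 0% = plate median of DMSO wells and 100% = zero luminescence signal; higher percent means less beta-gal luminescence so fewer parasites; stock transfer was 50 nL into about 50 µL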
# Beta cell apopt – inhibitors of cytokine-induced beta cell apoptosis, primary screen, luminescence. hit rate 0.8% among 300,000. INS-1E cytokine-induced death, ATP luminescence, 48 h; percent of positive-control rescue, neutral wells zero. protection from apoptosis, % (test concentration not listed);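 active means all replicates at 75% or more, or half of them and the mean; inconclusive means half reach 75% but not the mean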;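 further: 0% = cytokine-treated negative control wells and 100% = positive control rescue; higher means more ATP so stronger rescue from cytokine killing; wells of about 40 µL received 100 nL stock; the first replicate is given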
# Ecoli growth – E. coli growth inhibition, primary screen, OD600 | hit rate 0.21% among 330,000 | OD600 absorbance (concentration not given with the values) | Escherichia coli growth, 23 h; stronger effect = lower value | AID 1053175, 2014;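 active means OD600 absorbance below the run mean of sample wells minus 3.6 SD, in any replicate, cut at about 0.56 in these data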;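 further: stock transfer was 300 nL into about 60 µL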
# A1 inh – caspase 3/7 activation in MEF A1-2A-BIM cells, primary screen, A1 inhibitor project, cell-based, luminescence, HTS. caspase activation, % (no concentration beside the values). Caspase-Glo 3/7 luminescence, 3 h; percent of clofoctol response, vehicle zero. hit rate 0.066% among 330,000. AID 2462, 2010;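 active means over half of replicate activation scores above 10%, or exactly half above 10 with the replicate mean above 10; inconclusive means replicate mean below 10 yet half the replicates above 10; inactive means over half of replicates below 10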;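 further: wells of about 30 µL received 50 nL stock; many hits fall short of the cut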
# FGF22 binding – binders of human FGF22 protein, primary screen, FGF22 synaptogenesis inhibitor project, biophysical, thermal shift, single point | recombinant FGF22 thermal shift, SYPRO orange fluorescence; percent of sucrose octasulfate shift, DMSO zero | AID 651658, 2012 | hit rate 1.5% among 340,000 | calls only at 9.99 µM | Fibroblast growth factor 22 (Homo sapiens), Q9HCT0;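 active means melting point raised past a set limit in the mean and every replicate; inconclusive means no clear call; three in four hits are not shown here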
# rRNA inh HTS OD600 – also measured in rRNA inh HTS; calls as there; OD600 change, %; measured here: OD600 growth;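 optical density of the mix in the first replicate; 0 = DMSO median and -100 = no signal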
# rRNA inh HTS RFP – recorded beside rRNA inh HTS, whose call it bears; RFP signal change, %; measured here: RFP humanized mutant strains;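 first replicate; 0 = DMSO median and -100 = no signal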
# * = called active by the depositor; i = inactive; ? = inconclusive; . = no result given.
SMILES,rRNA inh HTS,rRNA inh HTS OD600,rRNA inh HTS RFP,UCH37 DUB inh,MLL AF4-AF9 inh,T cruzi inh,Beta cell apopt,Ecoli growth,A1 inh,FGF22 binding
CCOC(=O)COc1cccc2c(=O)n(CC(=O)N3CCC(C)CC3)ccc12,-8,4,-1.6,0.1,2.5,-1,-6,0.76,-0.4,i
CCN(CC)CCN1C(=O)C(=O)/C(=C(/O)c2ccc(F)cc2)C1c1ccncc1 (centres undefined),.,.,.,5.4,.,-17,-1,0.68,0.4,.
O=c1oc2ccccc2c(N2CCCCC2)c1CN1CCCC1,.,.,.,4.0,.,-1,.,0.64,-1.0,.
Cc1ccc(NC(=O)/C(=C/c2ccncc2)NC(=O)c2ccccc2)cc1,-1,-1,1.2,4.5,7.1,-10,0,0.7,0.2,i
O=C(CN1CCN(Cc2ccccc2)CC1)Nc1cccc(Cl)c1,0,10,-1.9,1.9,-1.2,11,-9,0.62,-0.2,i
CCc1nc(C)cn1S(=O)(=O)c1cc(Br)c(C)cc1OC,.,.,.,3.0,.,-2,-3,0.78,-0.1,.
Cc1ccc(N2CC(C(=O)OCc3ccccc3)CC2=O)cc1 (centres undefined),.,.,.,0.2,.,-15,-8,0.68,0.1,.
CCN(C[C@H]1N[C@@](Cc2ccccc2)(C(=O)OC)[C@H]2C(=O)N(Cc3ccccc3)C(=O)[C@@H]12)S(=O)(=O)c1ccc(OC(F)(F)F)cc1,-2,12,-3.6,0.2,-0.1,.,8,0.69,-0.5,i
CCn1cc(-c2nnnn2-c2ccc(Cl)cc2)c(=O)c2ccccc21,.,.,.,2.5,.,-3,5,0.7,-0.1,.
COc1ccc(C)c2sc(=NC(=O)c3ccc(C(C)=O)cc3)n(C)c12,5,6,2.5,-38,-16,18,10,0.66,-6.7,i
CC(C)C(=O)NNC(=O)c1c(O)c2ccccc2[nH]c1=O,-1,0,-1.7,4.9,-0.1,-16,-2,0.69,0.2,i
CCC(CC)NC(=O)C1CCN(c2ccc(S(=O)(=O)N3CCOCC3)cc2[N+](=O)[O-])CC1,.,.,.,1.0,-1.7,.,9,0.65,0.2,i
COc1ccc(NC(=O)CC2C(=O)OCC3CCCCN32)cc1Cl (centres undefined),.,.,.,-0.5,.,-14,-1,0.7,0.1,.
CCC(=O)Nc1ccc(NC(=O)CSc2nc3c(c(=O)n(C)c(=O)n3C)n2CC)cc1,0,1,-6.4,5.8,-1.3,3,-5,0.7,-0.3,i
COc1cccc(N2CCN(CC(=O)NCc3ccccc3)CC2)c1,-2,1,-0.5,-1.1,0.6,-1,-4,0.65,-0.9,i
CCOC(=O)COc1nc(C)cc(C(F)(F)F)c1C#N,9,7,-3.1,-431,-2.0,0,-9,0.68,0.0,i
COc1ccc(C(=O)N/N=C/c2cccnc2)cc1,10,14,8.0,.,-0.3,-9,-2,.,-1.0,i
O=C(OCC(=O)N1CCCCC1)c1ccc(OC(F)(F)F)cc1,-9,-5,-1.4,-0.1,-6.7,.,0,0.71,0.7,i
O=C(c1cccc(C(F)(F)F)c1)N1CCN(c2cc(=O)[nH]nc2-c2ccccc2)CC1,.,.,.,0.8,.,-10,-7,0.69,0.6,.
CCN(C[C@H]1N[C@@](C)(C(=O)OC)[C@H]2C(=O)N(Cc3ccccc3)C(=O)[C@@H]12)C(=O)Nc1ccccc1,3,3,1.2,3.3,1.2,.,.,0.71,.,i
OCC1OC(n2cnc3c(NC4CCCCC4)ncnc32)C(O)C1O (centres undefined),.,.,.,0.4,-2.0,8,-9,0.74,-1.4,i
COCCN(C(=O)Nc1ccccc1)C(C)c1cccnc1 (centres undefined),6,8,-3.2,2.0,0.2,-1,.,0.68,-0.6,i
CC(Sc1nccn1C)C(=O)Nc1ccc(C(N)=O)cc1 (centres undefined),3,6,-2.0,1.1,1.5,-5,-1,0.66,0.4,i
CCc1ccc(NC(=O)[C@H](C)NC(=O)C2CCN(C(=O)[C@@H](N)CC(C)C)CC2)cc1,8,14,2.6,0.0,-1.1,17,-6,0.69,0.0,i
COc1ccccc1CN1CCNC(=O)C1CC(=O)NCCCn1cccn1 (centres undefined),-3,-2,-2.3,-4.2,-3.8,-3,-7,0.66,0.5,i
CCOc1ccc(C(CC(=O)O)NC(=O)C23CC4CC(CC(C4)C2)C3)cc1OC (centres undefined),14,17,2.4,3.9,-2.3,10,-3,0.72,-0.2,i
COc1ccccc1-c1nnc(SCC(=O)N2CCOCC2)o1,12,3,-1.4,-2.3,-2.0,-8,0,0.76,-0.5,i
O=C(C1CCCCC1)N1CCC(n2nnc3ccccc32)CC1,.,.,.,0.9,.,-1,8,0.71,1.6,.
Cc1cccc(NS(=O)(=O)c2cc(C(=O)NCc3ccccn3)ccc2C)c1,-14,-30,-4.8,0.9,1.4,32,-3,0.7,1.4,i
Cc1ccc(S(=O)(=O)NC(C(=O)N2CCOCCOCCOCCOCC2)C(C)C)cc1 (centres undefined),3,11,-1.1,3.8,0.0,3,.,0.67,-0.2,i
Cn1c(CC(=O)NCCO)c(Sc2ccccc2)c2ccccc21,.,.,.,3.4,.,-6,-4,0.71,2.1,.
CCCS(=O)(=O)N1CCN(Cc2ccncc2)CC1,10,8,-0.4,4.0,-30,-10,-4,0.66,0.7,i
Cc1cc(NC(=O)CSc2nc3cc(Cl)ccc3o2)no1,8,12,-0.3,1.2,0.2,-20,-3,0.67,-0.2,i
Cc1cccc(N(Cc2cc3ccccc3[nH]c2=O)C(=O)c2ccco2)c1C,.,.,.,-2.6,.,5,-2,0.75,0.0,.
O=C1CNC(=O)N1c1ccc(Cl)cc1,12,19,2.2,2.6,0.9,-2,-4,0.7,-0.1,i
CCc1ccccc1NS(=O)(=O)c1ccc2c(c1)C(C)(C)C(=O)N2C,-8,-15,1.5,0.4,0.6,-1,.,0.7,.,i
Cc1c(NC(=O)OCCNC(=O)Nc2ccccc2)sc(=S)n1C,.,.,.,7.1,.,-8,1,0.69,?,.
CC(C)(C)CC(=O)NCCc1csc(-c2ccccc2)n1,-16*,-4.0*,4.6*,-1.2,-2.4,61*,-4,0.69,-0.3,i
COc1ccc(/C=C(\NC(=O)c2cccs2)C(=O)NN)cc1OC,35,26,5.2,7.1,-0.8,-9,0,0.67,0.6,i
O=C(CSc1ncnc2c1oc1ccccc12)Nc1ccc2c(c1)OCCO2,.,.,.,2.0,.,-16,-4,0.71,-0.3,.
O=C(NCc1cccnc1)c1ccccc1Br,.,.,.,0.6,.,.,-1,0.69,0.1,.
CCOC(=O)N1CCC(NC(=O)CSCc2nc(-c3ccc(OCC)cc3)oc2C)CC1,-1,-8,0.8,2.2,0.1,4,-7,0.61,0.3,i
CC(=O)NC(Cc1ccc(F)c(F)c1)C(=O)NC1CCN(C(=O)c2ccc(C)cc2)CC1 (centres undefined),0,8,-6.7,1.0,-0.7,-6,.,0.69,1.2,i
Cc1ccc(NC(=O)c2cc(C)no2)cc1,12,15,0.0,1.8,-0.6,-6,.,0.64,-0.9,i
O=C(NCCNCCO)C1(C(F)(F)F)C/C(=C\Cc2ccccc2)CCCO1 (centres undefined),0,6,3.9,1.1,-1.2,-8,1,.,0.3,i
Cc1ccc2c(c1)SC1=NC(c3ccccc3)(C(F)(F)F)NC(=O)N12 (centres undefined),.,.,.,1.7,.,-6,3,0.71,-0.7,.
CSc1nnc(SCC2=NNC(=O)SC2)s1,.,.,.,-1.0,.,4,.,0.67,0.0,.
O=C(COC(=O)c1ccccc1S(=O)(=O)N1CCCCC1)NCC(F)(F)F,.,.,.,0.3,.,-4,-4,0.73,-0.3,.
CCOc1ccc(NC(=S)NCc2ccc3[nH]c(C)cc3c2)cc1,-8,7,7.9,.,4.9,2,-2,.,0.5,i
CC1(C)CC(N=C2C([N+](=O)[O-])=CC=C3C2=NC2(CCCCC2)N3O)CC(C)(C)N1,8,0,2.8,12,3.4,-19,8,0.7,0.0,i
COc1ccc(S(=O)(=O)N(C)c2ccc(C(=O)NCc3ccccn3)cc2)cc1OC,.,.,.,0.4,-1.7,-7,.,0.69,0.8,i
CC(C)C(OC(=O)c1cccs1)C(=O)NCc1ccccc1 (centres undefined),-12,-5,2.0,4.9,-0.7,-9,-3,0.7,0.5,i
CC(C)(C)NC(=O)CN(C(=O)CCC(=O)Nc1nccs1)c1ccc2c(c1)OCCO2,-4,-3,-0.5,-0.2,0.8,0,1,0.68,-0.2,i
Cc1cccc(C)c1NC(=O)CNC(=O)C(C)N1CCCCC1 (centres undefined),4,10,-0.6,1.4,-2.9,.,0,0.64,-1.4,i
COc1ccc(/C=N/NC(=O)c2ccco2)cc1Cn1nc(C)cc1C,2,-9,-5.0,.,-2.4,-12,2,.,0.4,i
Cc1ccc(S(=O)(=O)NC(=O)NC(C)(C)C)cc1,.,.,.,3.4,.,1,.,0.69,0.5,.
O=C(c1ccc(Cl)c(S(=O)(=O)N2CCCCC2)c1)N1CCCCCC1,-8,-5,-1.1,1.6,-0.1,21,-7,0.7,0.1,i
COC(=O)C[C@H](NC(=O)Cn1cnc2c(SC)nc(N)nc21)C(=O)OC,19,16,1.3,.,-1.2,.,-5,.,-0.3,i

# Screens (PubChem BioAssay)

# These rows are one share of the data, so the mix of outcomes need not match the whole.
